# SARS PLP yeast = qHTS of Yeast-based Assay for SARS-CoV PLP; 0.19% of 330,000 active; Potency, µM (titrated, usually from 32.9 µM), inactives show at the top dose activity, positive = growth rescue; S. cerevisiae expressing SARS-CoV PLpro, growth rescue; control for the full effect not named in the record; note: 0% is about no effect; nearly all actives have a fitted effect of over 55% in size; growth read by luminescence after 48 h
# StopGo reporter = High Throughput Screening for Foot and Mouth Disease Virus Antivirals; human cells with a luciferase reporter of 2A StopGo recoding; control for the full effect not named in the record; 1.2% of 410,000 active; AID 1159524, 2015; Potency, µM (highest dose often 57.9 µM), for the others: at the top dose signal change, negative = less light; active = well fitted falling curve with a large enough effect; inconclusive = small, poorly fitted or top-dose-only effect; inactive = no such curve, though single readings can be large or run the other way; tested in HEK293T cells; note: % is set by controls: 0 for no effect and ±100 for the full control effect; nearly all actives have a fitted effect of over 45% in size; luciferase light after 4 h
# Cruzain inh Det = qHTS Assay for Promiscuous and Specific Inhibitors of Cruzain (with detergent); purified cruzain, Z-FR-AMC fluorescence, 0.01% Triton; Cruzipain (Trypanosoma cruzi), P25779; 0.43% of 200,000 active; Potency, µM, without a hit: max response, negative = inhibition, hits mostly inhibitors; active = well fitted curve in the direction sought with a large enough effect; inconclusive = small, poorly fitted or top-dose-only effect, or another doubt; inactive = no such curve, though single readings can be large; an effect the other way counts as inactive or inconclusive;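 note: plate controls were neutral wells for no effect and buffer without enzyme for full effect; nearly all actives have a fitted effect of over 40% in size; top concentration of the series not given in the record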
# Target sequence (P25779 123-467 limits assumed): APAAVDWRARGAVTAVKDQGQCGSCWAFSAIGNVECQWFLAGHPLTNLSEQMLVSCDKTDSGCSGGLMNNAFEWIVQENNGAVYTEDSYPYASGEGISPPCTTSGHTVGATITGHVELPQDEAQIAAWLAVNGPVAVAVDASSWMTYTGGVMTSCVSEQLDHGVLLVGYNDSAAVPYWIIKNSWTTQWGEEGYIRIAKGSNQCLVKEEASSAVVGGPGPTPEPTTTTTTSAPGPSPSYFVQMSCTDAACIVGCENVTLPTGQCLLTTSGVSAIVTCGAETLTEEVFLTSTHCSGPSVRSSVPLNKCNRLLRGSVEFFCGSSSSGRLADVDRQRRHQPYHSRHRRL
#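 Read-out: AMC fluorescence (360 nm excitation, 450 nm emission), four reads over 2 min, first-to-third difference used. Conditions: cruzain 1.5 nM, Z-FR-AMC 2 uM, pH 5.5 acetate, 5 mM DTT, 0.01% Triton X-100.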
# RE007 growth inh = qHTS Assay for Inhibitors of the HIV-1 protein Vpr; S. pombe RE007 Vpr strain, BacTiter-Glo ATP luminescence, 24 h; control for the full effect not named in the record; Potency, µM (series often up to 92.2 µM), without a hit: at the top dose activity change, negative = less growth; 0.21% of 360,000 active; active = well fitted falling curve with a large enough effect; inconclusive = small, poorly fitted or top-dose-only effect; inactive = no such curve, though single readings can be large or run the other way;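 note: % is set by controls: 0 for no effect and ±100 for the full control effect; nearly all actives have a fitted effect of over 50% in size; the assay follows cell death caused by Vpr and the record does not say whether a fall means rescue or toxicity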
#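 Fission yeast RE007 carrying one integrated HIV-1 vpr copy, seeded at OD 0.01 in PMG+AL medium with 23 nL pinned compound. Grown 24 h at 30 degrees; viability read by BacTiter-Glo luminescence after 5 min.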
# Cruzain inh noDet = qHTS Assay for Promiscuous and Specific Inhibitors of Cruzain (without detergent). purified cruzain, Z-FR-AMC fluorescence, no detergent. Potency, µM, inactives show max response, negative = inhibition, hits mostly inhibitors. 2.3% of 200,000 active; active = well fitted curve in the direction sought with a large enough effect; inconclusive = small, poorly fitted or top-dose-only effect, or another doubt; inactive = no such curve, though single readings can be large; an effect the other way counts as inactive or inconclusive;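 note: plate controls were enzyme without inhibitor for no effect and buffer without enzyme for full effect; nearly all actives have a fitted effect of over 40% in size; top concentration of the series not given in the record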
#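 Purified cruzain at 1.5 nM, pre-incubated 15 min with compound at room temperature in 100 mM sodium acetate pH 5.5, 5 mM DTT, 0.00005% Triton X-100. Reaction started with 2 uM Z-FR-AMC; AMC fluorescence increase over 60 s gives rate.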
# MARV entry inh = qHTS for inhibitors of binding or entry into cells for Marburg Virus. Marburg virus pseudotyped entry inhibition, cell reporter; control for the full effect not named in the record; about a third of the inactives were read at about 46 µM. 1.8% of 300,000 active. Potency, µM (doses to about 37.8 µM), for inactives: at the highest dose activity change, negative = inhibition, most hits filed as inhibitors; active = well fitted inhibition curve with a large enough effect; inconclusive = small, poorly fitted or top-dose-only effect, or effect the other way; inactive = flat fitted curve, though single readings scatter; tested in HEK293 cells; about a fifth of its hits are not listed in these tables; note: % is set by controls: 0 for no effect and ±100 for the full control effect; luciferase read-out
# LASV entry inh = qHTS for Inhibitors of binding or entry into cells for Lassa Virus; Potency, µM (highest dose often 37.9 µM), without a hit: top-dose activity change, negative = inhibition, actives largely listed as inhibitors; Lassa virus pseudotype entry inhibition, cell reporter; control for the full effect not named in the record; 1.2% of 300,000 active; AID 540256, 2011; active means well fitted inhibition curve with a large enough effect; inconclusive means small, poorly fitted or top-dose-only effect, or effect the other way; inactive means flat fitted curve, though single readings scatter; tested in HEK293 cells; note: % is set by controls: 0 for no effect and ±100 for the full control effect; nearly all actives have a fitted effect of over 50% in size; luciferase read-out
# NS1 inh = qHTS Assay for Inhibitors of Influenza NS1 Protein Function. S. cerevisiae slowed by influenza A NS1, growth recovery by OD600. Potency, µM (titrated, usually from 46.1 µM), for the others: at the top dose activity, positive = more growth. 0.4% of 270,000 active; note: actives are rising curves; nearly all actives have a fitted effect of over 50% in size
#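 Recovery from NS1-induced slow growth read by OD600 in budding yeast switched to galactose assay medium (pH 6.0, -URA) at 1:100 dilution. Compound 23 nl per well; the matching strain lacking NS1 serves as control.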
# An asterisk follows results filed as active; ? = inconclusive; / = not tested or not shown; & = joins results of further samples; [ ] = dose if it differs, or a comment. Unless noted, calls come from the whole dose curve; as a rule, active means well fitted rising curve with a large enough effect; inconclusive means small, poorly fitted or top-dose-only effect; inactive means no such curve, though single readings can be large or run the other way. Potency is the fitted concentration of half-maximal effect.
SMILES,SARS PLP yeast,StopGo reporter,Cruzain inh Det,RE007 growth inh,Cruzain inh noDet,MARV entry inh,LASV entry inh,NS1 inh
OC(COc1ccc(Cl)cc1)CN1CCN(c2ccccn2)CC1 (stereo not drawn),/,-11%,/,-6%,/,?,13%,/
CC(=O)N(c1cccc(C)c1)S(=O)(=O)c1ccc(Cl)cc1,-2%,22%,/,16%,/,/,/,1%
CCCCNC(=O)C1CCC(Cn2c(=O)c3sccc3n(Cc3ccccc3)c2=O)CC1 (stereo not drawn),/,7%,-2.3%,/,-4%,/,-2%[46.1 µM],/
O=C(c1ccc(F)cc1)N1C2CCC1CC(O)(c1ccccc1F)C2 (stereo not drawn),3%,-7%,0.4%,-12%,8%,-12%[46.1 µM],-11%,-10%
CN1C(=O)C(=Cc2ccccc2OCc2ccccc2Cl)C(=O)N(C)C1=O,?,2%,-3.0%,5%,-2%,9%[46.1 µM],2%,-7%
Cc1ccc(Nc2nc(N)c([N+](=O)[O-])c(NCc3ccccc3)n2)cc1,0%,-28%,/,3%,/,?,6%,-1%
O=S1(=O)N=C(N/N=C/c2cccs2)c2ccccc21,-3%,8%,/,11%,/,-31%[46.1 µM],?,-10%
O=C(Nc1cccnc1)c1ccc(NC(=O)c2ccco2)cc1,3%,-5%,-12%,-1%,?,-12%[46.1 µM],0%,-5%
Cc1ccc(CNC(=O)CSC2=Nc3ccccc3C3=NC(C)C(=O)N23)cc1 (stereo not drawn),/,2%,-4.7%,/,-16%,/,-29%[46.1 µM],/
Cc1ccnc(NC(=O)CN2C(=O)c3ccccc3S2(=O)=O)c1,2%,20%,/,2%,/,-2%[46.1 µM],0%,/
O=[N+]([O-])c1ccc(O)c(C=NNc2ccc(S(=O)(=O)O)cc2)c1,/,2%,/,-20%,/,22%[46.1 µM],2%[46.1 µM],/
Cc1ccc(OCc2ccc(C(=O)NNC(=S)NCC3CCCO3)o2)c([N+](=O)[O-])c1 (stereo not drawn),1%,-10%,/,22%,/,11%,32%,3%
CCOc1ccc(CCNC(=O)COC(=O)/C=C/c2ccc(OCC#N)c(OC)c2)cc1OCC,-4%,14%,-9.6%,-17%,?,5%,-36%,?
O=C(COc1ccc2c3c(c(=O)oc2c1)CCCC3)N1CCN(c2ccccc2)CC1,0%,1%,/,-8%,/,/,/,4%
C/C(=N/NC(=O)c1ccc(C)s1)c1cccnc1,-4%,56%[activator],/,-5%,/,/,/,-16%
CCOc1ccc(/C=N/NC(=O)CCC(=O)Nc2ccc(F)cc2)cc1,1%,10%,/,16%,/,-8%[46.1 µM],?,1%
C/C(=N/OC(=O)c1ccc(C(F)(F)F)cc1)c1oc(C)nc1C,0%,-15%,/,1%,/,5%,10%,-2%
CC(C)c1[nH]nc2c1C1(CCN(Cc3ccccc3)CC1)C(C#N)=C(N)O2,-5%,-13%,5.0%,-4%,-3%,-7%,-2%,3%
CC(=O)Nc1ccc2c(c1)Cc1cc(N3C(=O)C=CC3=O)ccc1-2,/,-27%,/,4.5µM*,/,?,?,/
CCCn1c(N)c(N(C)C)c(=O)n(CC(=O)Nc2ccc(OC(F)(F)F)cc2)c1=O,2%,-7%,-3.7%,1%,-1%,-29%[46.1 µM],8%,0%
Cn1c(N)c(C(=O)CSc2ccccn2)c(=O)n(C)c1=O,8%,53%[activator],-1.0%,0%,2%,2%,2%,2%
COc1ccc(N(CC(O)CN2CCOCC2)S(=O)(=O)c2ccc(C)cc2)cc1 (stereo not drawn),-1%,-9%,/,10%,/,-6%[46.1 µM],?,-15%
Cc1ccn(Cc2n[nH]c(=S)n2Cc2ccccc2)n1,4%,-2%,2.7%,-11%,-5%,-4%,3%,-7%
CC1(C)CC(c2csc(N)n2)CCO1 (stereo not drawn),?,-1%,2.1%,5%,-11%,2%,22%,-10%
COc1ccccc1-c1c(C(F)(F)F)oc2cc(OC(=O)c3ccccc3[N+](=O)[O-])ccc2c1=O,-32%,?,-5.2%,8%,-11%,?,-28%,-7%

# An excerpt from above in order of length of the SMILES, ascending.
SMILES,SARS PLP yeast,StopGo reporter,Cruzain inh Det,RE007 growth inh,Cruzain inh noDet,MARV entry inh,LASV entry inh,NS1 inh
CC1(C)CC(c2csc(N)n2)CCO1 (stereo not drawn),?,-1%,2.1%,5%,-11%,2%,22%,-10%
CN1C(=O)C(=Cc2ccccc2OCc2ccccc2Cl)C(=O)N(C)C1=O,?,2%,-3.0%,5%,-2%,9%[46.1 µM],2%,-7%
COc1ccc(N(CC(O)CN2CCOCC2)S(=O)(=O)c2ccc(C)cc2)cc1 (stereo not drawn),-1%,-9%,/,10%,/,-6%[46.1 µM],?,-15%

# Back to the main list, repeating the three entries before the break.
SMILES,SARS PLP yeast,StopGo reporter,Cruzain inh Det,RE007 growth inh,Cruzain inh noDet,MARV entry inh,LASV entry inh,NS1 inh
Cc1ccn(Cc2n[nH]c(=S)n2Cc2ccccc2)n1,4%,-2%,2.7%,-11%,-5%,-4%,3%,-7%
CC1(C)CC(c2csc(N)n2)CCO1 (stereo not drawn),?,-1%,2.1%,5%,-11%,2%,22%,-10%
COc1ccccc1-c1c(C(F)(F)F)oc2cc(OC(=O)c3ccccc3[N+](=O)[O-])ccc2c1=O,-32%,?,-5.2%,8%,-11%,?,-28%,-7%
COc1ccc(NC(=O)c2oc3ccccc3c2NC(=O)c2cccc(F)c2)c(OC)c1,/,-19%,-1.2%,/,-2%,-19%[46.1 µM],15%[46.1 µM],/
CC(C)c1ccc(CNNC(=O)c2ccccc2)cc1,-2%,54%[activator],/,2%,/,/,/,-2%
COc1ccc(-n2c(=O)cc(N3CC(C)OC(C)C3)[nH]c2=O)cc1 (stereo not drawn),6%,0%,6.2%,0%,8%,12%,18%,-7%
O=C(CNC(=O)c1ccccc1O)N/N=C/c1ccccn1,-2%,8%,/,10%,/,0%[46.1 µM],6%[46.1 µM],/
Cc1ccc(NCc2nnc(SCC(=O)OC3CCCCC3)o2)c(C)c1,-9%,-3%,-10%,-4%,-1%,-1%,-18%,?
O=C1CC(c2cc(-c3ccccc3)no2)C1,-6%,74%[activator],/,-14%,/,/,/,18%
O=S(=O)(c1ccccc1)c1nc(-c2ccco2)oc1NCCN1CCOCC1,11%,0%,-3.9%,2%,-1%,15%,6%,?
Cc1c(C(=O)O)sc2ncn(C)c(=O)c12,4%,-1%,5.0%,-4%,0%,11%,-8%,3%
C=CCn1c(C)cc(C2=NNC(=NCC)SC2)c1C,-34%,?,-6.5%,?,?,1.2µM*,1.6µM*,-17%
CC(=O)Nc1ccc(N2CCN(Cc3ccccc3)CC2)cc1,-2%,-8%,/,3%,/,/,/,0%
CCOc1ccc(-c2nonc2NC(=O)c2ccccc2C)cc1,/,-16%,9.5%,/,13%,2%[46.1 µM],2%[46.1 µM],/
COc1ccccc1NC(=O)c1cc(C(=O)Nc2ccccc2OC)n(C)n1,/,-9%,/,-12%,/,?,-25%[46.1 µM],/
COC(=O)COc1ccc(S(=O)(=O)Nc2ccc(NC(C)=O)cc2)cc1C,-4%,9%,4.0%,-6%,10%,23%,-9%,-12%
CC(C)CN1CN(S(=O)(=O)c2cccs2)c2nc3ccccc3nc21,5%,/,-5.2%,/,4%,-1%,/,-11%
CCOC(=O)c1csc(NC(=O)c2cccs2)n1,-22%,28%,/,-13%,/,/,/,-10%
COc1cccc(Nc2ncnc3c2cnn3C)c1,-1%,/,-2.5%,-4%,-7%,28%,?,-56%
O=C(CN1CCC(c2nc3ccccc3s2)CC1)NCc1ccccc1,6%,-28%,-2.6%,-4%,-9%,-1%,?,-7%
Nc1ccc(N2CCN(C(=O)c3ccco3)CC2)cc1,5%,9%,-4.2%,-15%&-20%,-11%,0%&0%,-13%,29%
O=S(=O)(c1ccccc1)N(CC(O)CN1CCCC1)c1ccccc1 (stereo not drawn),2%,8%,/,?,/,-18%[46.1 µM],?,-3%
COc1ccc(CNC(=O)CSc2nc3ccc(N)cc3s2)cc1,-6%,30%,-1.6%,21%,-2%,?,-13%,8%
CCc1ccc(NC(=O)c2ccc(F)c(S(=O)(=O)N3CCN(c4ccc(OC)cc4)CC3)c2)cc1,/,-16%,1.0%,/,3%,/,?,/
Cc1c2c(nc3ccccc13)CC(C)(C)CC2=O,0%,-1%,/,0%,/,-30%,?,/
CC(=O)N1CCN(CC(=O)Nc2ccccc2Sc2ccccc2)CC1,-4%,0%,-3.6%,-4%,?,?,10µM*,-9%
O=C1COc2ccc(C(=O)COC(=O)c3ccccn3)cc2N1,1%,29%,/,9%,/,3%,?,/
CC(C)C(=O)N=C1SC2CS(=O)(=O)CC2N1Cc1ccc(Cl)cc1 (stereo not drawn),-1%,-6%,/,2%,/,-10%[46.1 µM],-16%[46.1 µM],4%
CCCn1cnc2c(c1=O)c1nc3ccccc3nc1n2CCc1ccccc1,1%,/,0.1%,4%,?,-1%,5%,-51%
CCOC(=O)c1c(C)c(C(=O)NCc2ccccn2)c(C)n1CC,0%,4%,6.2%,8%,-2%,5%,-5%,-2%

# Whole records, looked up by structure:
# Record of `Nc1ccc(N2CCN(C(=O)c3ccco3)CC2)cc1` → SARS PLP yeast: 5%; StopGo reporter: 9%; Cruzain inh Det: -4.2%; RE007 growth inh: -15%&-20%; Cruzain inh noDet: -11%; MARV entry inh: 0%&0%; LASV entry inh: -13%; NS1 inh: 29%
# Record of `OC(COc1ccc(Cl)cc1)CN1CCN(c2ccccn2)CC1` (stereo not drawn) → SARS PLP yeast: /; StopGo reporter: -11%; Cruzain inh Det: /; RE007 growth inh: -6%; Cruzain inh noDet: /; MARV entry inh: ?; LASV entry inh: 13%; NS1 inh: /

# Source: PubChem (National Center for Advancing Translational Sciences (NCATS))

# Rows are unselected; about 4.6% have a hit in one of these screens.
